# TRPV1 potentiator = HTS Assay for Compounds that Act as Potentiators of the Vanilloid Receptor 1; TRPV1-expressing cells, Fluo-8 calcium influx, capsaicin EC20 potentiation; host cell line not named in the record; control for the full effect not named in the record; potentiation, % at 8.33 µM; actives 0.02% (n = 320,000); AID 540277, 2011; active means potentiation above 80%; inconclusive means 30% to 80%; inactive means below 30%; also: 0% is about no effect
# Target sequence (Q8NER1 whole entry, looked up): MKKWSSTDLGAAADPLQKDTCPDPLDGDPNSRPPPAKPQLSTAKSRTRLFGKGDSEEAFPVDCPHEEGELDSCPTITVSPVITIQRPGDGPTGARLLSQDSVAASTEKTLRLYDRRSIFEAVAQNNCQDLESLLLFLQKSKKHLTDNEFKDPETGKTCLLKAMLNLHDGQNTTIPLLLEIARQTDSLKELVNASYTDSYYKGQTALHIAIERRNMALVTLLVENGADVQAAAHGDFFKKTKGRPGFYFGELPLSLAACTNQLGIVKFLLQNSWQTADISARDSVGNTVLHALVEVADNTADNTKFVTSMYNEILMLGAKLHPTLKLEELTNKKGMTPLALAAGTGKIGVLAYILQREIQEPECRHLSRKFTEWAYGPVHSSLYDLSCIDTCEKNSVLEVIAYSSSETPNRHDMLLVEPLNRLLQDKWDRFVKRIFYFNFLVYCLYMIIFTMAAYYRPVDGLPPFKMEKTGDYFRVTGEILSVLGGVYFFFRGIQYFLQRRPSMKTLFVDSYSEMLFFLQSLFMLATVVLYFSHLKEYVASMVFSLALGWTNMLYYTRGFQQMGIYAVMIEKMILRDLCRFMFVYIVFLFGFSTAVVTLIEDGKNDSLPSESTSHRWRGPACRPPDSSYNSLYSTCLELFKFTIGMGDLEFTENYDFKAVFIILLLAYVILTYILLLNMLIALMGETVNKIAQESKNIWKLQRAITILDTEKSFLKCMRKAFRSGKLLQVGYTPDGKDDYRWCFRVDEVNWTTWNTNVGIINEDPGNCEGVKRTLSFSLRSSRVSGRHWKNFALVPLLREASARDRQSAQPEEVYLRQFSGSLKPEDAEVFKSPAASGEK
#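 TRPV1-expressing cells were cultured overnight at 35.5C and loaded with Fluo-8 calcium dye for 40 to 90 min at room temperature. After a 10 s baseline, compound was added and calcium influx was read kinetically for 3 min (ex 480/em 520 nm).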
# PINK1 expr mod = A Quantitative High throughput Screen to Identify Chemical Modulators of PINK1 Expression; PINK1 immunofluorescence, high-content cytometry, 24 h; Potency, µM (titrated, usually from 76.6 µM), inactives show top-dose activation (PINK1 increase), hits mostly activators; actives 0.2% (n = 410,000); active = well fitted activation curve with a large enough effect; inconclusive = small, poorly fitted or top-dose-only effect; inactive = flat fitted curve, though single readings scatter; cell line not stated here;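 also: potency is read from the fitted curve at half-maximal effect; % of control where 0% means no effect; nearly all actives have a fitted effect of over 65% in size; a mitochondrial uncoupler was the plate control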
#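 Stable cell line, 250 cells/well, 12 h attachment; compounds pinned at 5 concentrations, 24 h; CCCP control. Fixed with nuclear dye, primary antibodies 12 h at 10 degrees C, secondary plus cell stain; laser-scanning cytometer read.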
# Sfp inh = qHTS Assay for Inhibitors of Bacillus subtilis Sfp phosphopantetheinyl transferase (PPTase). Biochemical Sfp PPTase activity, qHTS. Potency, µM, for the others: max response, negative = inhibition, usual class: inhibitors. actives 3.5% (n = 310,000). 4'-phosphopantetheinyl transferase ffp (Bacillus subtilis), Q9F4F7; active = well fitted inhibition curve with a large enough effect; inconclusive = small, poorly fitted or top-dose-only effect, or another doubt; inactive = no such curve, though single readings can be large or run the other way;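 also: the enzyme is Sfp with the accession as filed and its product quenches rhodamine fluorescence; potency is read from the fitted curve at half-maximal effect; 0% = enzyme reaction without inhibitor and -100% = no enzyme wells; top concentration of the series not given in the record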
#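 Fluorescence-quenching assay with 15 nM Sfp, 5 uM rhodamine-CoA and 12.5 uM BHQ-2-labelled ybbR peptide in pH 7.6 Hepes/MgCl2 buffer. Enzyme was pre-incubated with compound for 15 min at room temperature. Rate was taken from the 30-min fluorescence change (525/598 nm).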
# * hit, by the source's call; ? = inconclusive; nt = not tested or not shown; & = joins results of further samples.
SMILES,TRPV1 potentiator,PINK1 expr mod,Sfp inh
CCN(CC)C(=O)/C(Cl)=C(\C)OP(=O)(OC)OC,nt,nt,6.2%
CC(C)=CCCC1(C)C=Cc2c(O)c3c(c(CC=C(C)C)c2O1)OC12C(CC4CC1C(C)(C)OC2(C/C=C(/C)C(=O)O)C4O)C3=O (stereo not given),nt,nt,-15.0%
CC1O[C@@H](OC2CC[C@@]3(C=O)C4CC[C@]5(C)C(C6=CC(=O)OC6)CC[C@@]5(O)C4CC[C@]3(O)C2)C(O)C(O)C1O (stereo not given in full),nt,nt,3.2%
C/C(O)=C(/C#N)C(=O)Nc1cc(Br)ccc1Br,nt,nt,8.4%
Cc1cc(C)cc(C(=O)OC2C[C@H]3CC[C@@H](C2)N3C)c1 (stereo not given in full),nt,nt,-0.4%
COc1ccc2c(c1OC)C(=O)O[C@@H]2C1c2cc3c(cc2CCN1C)OCO3 (stereo not given in full),nt,nt,22.6%
CCCCCCCCCC(CC)c1ccc(S(=O)(=O)O)cc1 (stereo not given),nt,nt,18.3%
COC(=O)[C@@]1(O)C[C@@H]2O[C@@]1(C)n1c3ccccc3c3c4c(c5c6ccccc6n2c5c31)C(=O)NC4,nt,nt,-3.4%
C=C[C@]12CN(C)[C@H]3C1[C@@]1(C(=O)Nc4ccccc41)[C@H]1C[C@H]2[C@H]3CO1,nt,nt,11.3%
CC1(C)S[C@@H]2[C@H](N)C(=O)N2C1C(=O)O (stereo not given in full),nt,nt,14.1µM*

# Next part, overlapping the part above by 3 compounds.
SMILES,TRPV1 potentiator,PINK1 expr mod,Sfp inh
COC(=O)[C@@]1(O)C[C@@H]2O[C@@]1(C)n1c3ccccc3c3c4c(c5c6ccccc6n2c5c31)C(=O)NC4,nt,nt,-3.4%
C=C[C@]12CN(C)[C@H]3C1[C@@]1(C(=O)Nc4ccccc41)[C@H]1C[C@H]2[C@H]3CO1,nt,nt,11.3%
CC1(C)S[C@@H]2[C@H](N)C(=O)N2C1C(=O)O (stereo not given in full),nt,nt,14.1µM*
NC(N)=NOCC[C@H](N)C(=O)O,nt,nt,-1.2%&8.5%
CCCCC/C=C\C/C=C\C/C=C\C=C\[C@H](CCCC(=O)O)OO,nt,nt,7.8%&1.3%
COC(=O)[C@@H]1C[C@H](OC(C)=O)C(=O)[C@H]2[C@@]1(C)CC[C@H]1C(=O)O[C@H](c3ccoc3)C[C@]21C,nt,nt,-1.8%&3.5%
CC1(C)C(=O)C=C[C@@]2(C)C1=C(O)C(=O)[C@@]1(C)C2CC[C@@]2(C)C(c3ccoc3)C[C@H]3O[C@@]321 (stereo not given in full),nt,nt,-16.9%
C[C@H](NC(=O)[C@@H](N)Cc1ccc(O)cc1)C(=O)N[C@@H](Cc1ccccc1)C(=O)N[C@@H](Cc1ccccc1)C(N)=O,nt,nt,-7.7%
CCOC(OCC)P(=O)(O)CCCN,nt,nt,20.2%&-5.5%
O[C@@H](Cc1ccncc1)C(Cl)(Cl)Cl,nt,nt,3.7%
CCC1(CC)C(=O)NC(=O)N(C)C1=O,nt,nt,14.0%
O=C(Nc1ccc(Br)cc1)c1cc(Br)cc(Br)c1O,nt,nt,-2.0%
CC[C@]12CCCN3CCC4(c5ccccc5NC4C(C(=O)O)C1)C32 (stereo not given in full),nt,nt,-14.1%
COc1ccc(N2C(=O)NC(=O)/C(=C/c3ccc4c(c3)Cc3ccccc3-4)C2=O)cc1,7.4,nt,56.2µM*
CN(C)c1ncc(/C=C2/C(=O)NC(=S)N(C3CCCCC3)C2=O)cn1,4.7,nt,44.7µM*
CC(C)n1c(=O)c(C=Nc2ccc(Cl)cc2)c(O)n(Cc2ccco2)c1=O,19.0,nt,-18.4%
O=C1C=Cc2ccccc2C1=O,7.3,nt,2.82µM*
CC(=O)c1ccccc1NC(=O)C1C2CCC(O2)C1C(=O)O (stereo not given),-5.5,nt,0.7%
NCCc1c[nH]c2ccc(F)cc12,-0.5,nt,-9.5%
NC(CC(=O)O)C1CCCCC1 (stereo not given),-3.1,nt,7.8%
C=C(C)CN1CC[C@]23c4c5ccc(O)c4O[C@H]2c2[nH]c4ccccc4c2C[C@@]3(O)C1C5,6.1,nt,9.1%
N#CC(C#N)=Cc1ccc(-c2ccccc2)o1,-9.2,nt,11.5%
COc1cccc(N2C(=O)NC(=O)/C(=C/c3ccc4c5c(cccc35)CC4)C2=O)c1,6.1,nt,56.2µM*
Cc1ccsc1C(=O)C1CCCN(Cc2cnc(N(C)C)s2)C1 (stereo not given),-2.3,nt,-6.0%
c1ccc(C2=NP(N3CCOCC3)(N3CCOCC3)=NC(N3CCOCC3)=N2)cc1,-18.0,nt,7.9%
Oc1ccc(C(=C(Cl)Cl)c2ccc(O)cc2)cc1,6.7,nt,4.8%
CCCCn1c(=O)c(C(=O)Nc2nnc(C(C)C)s2)c(O)c2ccccc21,5.2,nt,16.2%
CCOc1cc(C=C2C(=O)NC(=O)NC2=O)cc([N+](=O)[O-])c1O,1.0,nt,35.5µM*
CCCCN1C(=O)/C(=C/c2ccc(N3CCCCCC3)cc2)C(=O)NC1=S,19.8,nt,-18.9%
CC[N+](C)(CC)CCC[n+]1c(-c2ccccc2)c2cc(N)ccc2c2ccc(N)cc21,4.5,nt,50.1µM*
CN1C(=O)CN=C(c2ccccc2)c2cc([N+](=O)[O-])ccc21,-1.6,nt,-6.4%&19.9%
COc1ccccc1Cn1c(SCC(=O)C(C)(C)C)nc2cc(C(=O)N3CCC4(CC3)OCCO4)ccc2c1=O,14.6,nt,6.1%
CN1/C(=C\C=C\C2=[N+](C)c3ccc4ccccc4c3C2(C)C)C(C)(C)c2ccccc21,-9.8,nt,15.8µM*

# Overlap with the part before: 3 entries, then new ones.
SMILES,TRPV1 potentiator,PINK1 expr mod,Sfp inh
CN1C(=O)CN=C(c2ccccc2)c2cc([N+](=O)[O-])ccc21,-1.6,nt,-6.4%&19.9%
COc1ccccc1Cn1c(SCC(=O)C(C)(C)C)nc2cc(C(=O)N3CCC4(CC3)OCCO4)ccc2c1=O,14.6,nt,6.1%
CN1/C(=C\C=C\C2=[N+](C)c3ccc4ccccc4c3C2(C)C)C(C)(C)c2ccccc21,-9.8,nt,15.8µM*
Cc1ccc(N2C(=O)NC(=O)/C(=C\c3ccsc3)C2=O)cc1C,27.9,nt,50.1µM*
O=C(O[C@@H]1Cc2c(O)cc(O)cc2O[C@@H]1c1cc(O)c(O)c(O)c1)c1cc(O)c(O)c(O)c1,1.0,nt,11.2µM*
Cc1ccc(-c2nc(CS(=O)CC(=O)N3CCC4(CC3)OCCO4)c(C)o2)cc1 (stereo not given),-5.5,nt,2.2%
CNCCc1ccccc1,2.1,nt,2.5%
COC1CC(OC2CCC3(C)C(CCC4C3CCC3(C)C(C5=CC(=O)OC5)C(OC(C)=O)CC43O)C2)OC(C)C1OC1OC(COC2OC(CO)C(O)C(O)C2O)C(O)C(O)C1O (stereo not given),-6.9,nt,14.6%
Cc1ccc(-n2c(/C=C\c3ccc(F)cc3)nc3ccccc3c2=O)cc1Cl,nt,1.4%,nt
CCSc1nnc(NC(=O)c2cccn(Cc3ccccc3Cl)c2=O)s1,nt,-2.3%,nt
O=[N+]([O-])c1ccc(Cl)c(Cl)c1,nt,0.5%,nt
Nc1c(C(=O)Nc2ccc(F)c(Cl)c2)sc2nc3c(cc12)N1CCC3CC1,nt,1.7%,nt
COc1cccc(C2SCC(=O)Nc3c2c(C)nn3-c2ccc(C)c(Cl)c2)c1OC (stereo not given),nt,4.0%,nt

# 3 records picked at random from those above:
SMILES,TRPV1 potentiator,PINK1 expr mod,Sfp inh
O=[N+]([O-])c1ccc(Cl)c(Cl)c1,nt,0.5%,nt
COC1CC(OC2CCC3(C)C(CCC4C3CCC3(C)C(C5=CC(=O)OC5)C(OC(C)=O)CC43O)C2)OC(C)C1OC1OC(COC2OC(CO)C(O)C(O)C2O)C(O)C(O)C1O (stereo not given),-6.9,nt,14.6%
O=C(O[C@@H]1Cc2c(O)cc(O)cc2O[C@@H]1c1cc(O)c(O)c(O)c1)c1cc(O)c(O)c(O)c1,1.0,nt,11.2µM*

# Three structures already listed, arranged by molar mass, low to high.
SMILES,TRPV1 potentiator,PINK1 expr mod,Sfp inh
CNCCc1ccccc1,2.1,nt,2.5%
Cc1ccc(-n2c(/C=C\c3ccc(F)cc3)nc3ccccc3c2=O)cc1Cl,nt,1.4%,nt
Nc1c(C(=O)Nc2ccc(F)c(Cl)c2)sc2nc3c(cc12)N1CCC3CC1,nt,1.7%,nt

# (listing goes on)
SMILES,TRPV1 potentiator,PINK1 expr mod,Sfp inh
Cc1cccc(Cn2cccc(C(=O)Nc3ccc(F)cc3F)c2=O)c1,nt,1.4%,nt
CCSc1nc2n(n1)C(c1ccc(Cl)cc1Cl)C(C(=O)Nc1ccccc1C)=C(C)N2 (stereo not given),nt,?,nt
CCOc1ccc(CN(CCc2ccc3c(c2)OCO3)Cc2cccc(OC)c2)cc1,nt,-1.9%,nt
C=CCN1C(=O)C2(C(C(=O)OC)=C(N)Oc3c2c(=O)oc2ccccc32)c2ccccc21 (stereo not given),nt,-0.4%,nt
Cc1cccc(OCC(=O)N2CCN(CCc3ccccn3)CC2)c1,nt,0.3%,nt
COc1ccc(OCC(=O)N2CCN(CCc3ccncc3)CC2)cc1,nt,0.2%,nt
Cc1nnc(NC(=O)c2cccn(Cc3ccccc3F)c2=O)s1,nt,?,nt
Cc1cccc(OC(C)C(=O)NCC2(N(C)C)CCCCC2)c1C (stereo not given),nt,0.8%,nt
CCc1cccc(NC(=O)C2CCN(S(=O)(=O)c3ccc(Br)s3)CC2)c1,nt,?,nt
Nc1c(C(=O)Nc2ccc(Cl)c(C(F)(F)F)c2)sc2nc3c(cc12)N1CCC3CC1,nt,-0.5%,nt
CC(=O)Nc1ccc(OC(=O)N2CCN(/[N+]([O-])=N/Oc3ccc([N+](=O)[O-])cc3[N+](=O)[O-])CC2)cc1,nt,-1.4%,nt
Cc1ccc(NC(=O)CN2C(=O)CN=C(c3ccccc3)c3ccccc32)cc1,nt,-0.7%,nt
Cc1ccc(-n2c(/C=C\c3ccc(F)c(F)c3)nc3ccccc3c2=O)c(C)c1,nt,0.3%,nt
ClCCN(CCCl)c1ccc(/C=C/c2sc3ccccc3[n+]2CCCCI)cc1,nt,6.5%,nt
CC1(C)N([O])C(c2ccc(C(=O)O)cc2)=[N+]([O-])C1(C)C,nt,0.1%,nt
CCc1ccc(-n2nc(C)c3c2NC(=O)CSC3c2ccc(OC)cc2OC)cc1 (stereo not given),nt,0.9%,nt
CCC(C(=O)Nc1ccccc1F)N1C(=O)CN=C(c2ccccc2)c2ccccc21 (stereo not given),nt,3.7%,nt
N#Cc1cc([N+](=O)[O-])ccc1NC(=O)c1cccn(Cc2cccc(F)c2)c1=O,nt,-0.1%,nt
CCCC12CN3CC(C)(CN(C1)C3c1ccccn1)C2=O (stereo not given),nt,0.2%,nt
O=c1c2ccccc2nc(/C=C/c2cccc3ccccc23)n1-c1ccc(Cl)cc1,nt,0.5%,nt
CSc1ccc(/C=C/c2nc3ccccc3c(=O)n2-c2cccc(Cl)c2C)cc1,nt,0.5%,nt
O=C(Nc1ccc(Br)cc1C(=O)c1ccccc1Cl)c1ccc(Br)cc1,nt,2.8%,nt
Cc1cccc(-n2c(CC3C(=O)Nc4ccc(C)cc43)nc3ccccc3c2=O)c1 (stereo not given),nt,2.2%,nt
CC(C)(C)c1ccc(C(=O)Nc2ccc(Cl)cc2C(=O)c2ccccc2)cc1,nt,0.9%,nt
CCOc1ccc2nc(NC(=O)c3cccn(Cc4ccccc4Cl)c3=O)sc2c1,nt,-5.2%,nt
Cc1ccc(CNC(=O)CCCn2c(=O)c3sccc3n(CC(=O)Nc3c(C)cccc3C)c2=O)cc1,nt,1.0%,nt
COc1cc2nc(N3CCCN(C)CC3)nc(N(C)C3CCN(C)CC3)c2cc1OC,nt,-0.7%,nt
COc1cccc(NC(=O)c2cccn(Cc3ccccc3C)c2=O)c1,nt,-2.9%,nt
Cc1cccc(CN2C(=O)CN=C(c3ccccc3)c3cc(Cl)ccc32)c1,nt,-0.2%,nt
CC(N)[C@H](O)c1ccc(O)c(O)c1 (stereo not given in full),nt,-0.3%,nt
CN1CC[C@@]2(C)c3cc(O)ccc3N(C)C12 (stereo not given in full),nt,1.6%,nt
O=C(CCl)c1ccc(O)c(O)c1,nt,0.4%,nt
CCN(CC)C(=O)c1ccc(NC(=O)CCn2nc(-c3ccc(C)cc3)c3ccccc3c2=O)cc1,nt,0.2%,nt
CCC(=O)N1CC(=O)Nc2ccc(C)cc2C1c1ccc(F)cc1 (stereo not given),nt,1.8%,nt

# Assay outcomes from PubChem.

# Not all compounds are listed; count on the stated rates, not on these rows.
